# Rango-impB inh: Rango-importin beta binding inhibition | Rango CFP/YFP FRET sensor + importin beta, 45 min | Potency, µM (doses to about 92.2 µM), inactives show top-dose inhibition of complex formation | 340,000 compounds, 0.031% hits | AID 540263; active = rising FRET ratio curve, often small or poorly fitted; inconclusive = mostly compound fluorescence or quenching in the first reads; inactive = flat curves in all reads;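 note: potency is the fitted concentration of half-maximal effect; 0% = DMSO wells and 100% = buffer wells lacking importin beta; nearly all actives have a fitted effect of over 15% in size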
#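 Inhibition scored from the CFP 486 nm/YFP 530 nm FRET ratio 45 min after adding 0.125 microM importin beta to 50 nM Rango biosensor preincubated 5 min with compound (room temperature, PBS with DTT, Tween-20, BSA). No-importin wells as positive control.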
# GLA inh pH 4.5: blocks human alpha-galactosidase A at pH 4.5. purified enzyme, 4-MU-alpha-Gal fluorescence, pH 4.5. 230,000 tested, under 10 active. activity change, negative = inhibition, % at 105 µM. AID 1467. P06280; inconclusive = small, poorly fitted or top-dose-only inhibition, or a rising curve; inactive = flat fitted curve, though single readings scatter; no compound was filed as active;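 note: 0% = full activity with enzyme and -100% = basal without enzyme; dose as in the result columns while the protocol names 77 µM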
# Target sequence (P06280 whole entry, looked up): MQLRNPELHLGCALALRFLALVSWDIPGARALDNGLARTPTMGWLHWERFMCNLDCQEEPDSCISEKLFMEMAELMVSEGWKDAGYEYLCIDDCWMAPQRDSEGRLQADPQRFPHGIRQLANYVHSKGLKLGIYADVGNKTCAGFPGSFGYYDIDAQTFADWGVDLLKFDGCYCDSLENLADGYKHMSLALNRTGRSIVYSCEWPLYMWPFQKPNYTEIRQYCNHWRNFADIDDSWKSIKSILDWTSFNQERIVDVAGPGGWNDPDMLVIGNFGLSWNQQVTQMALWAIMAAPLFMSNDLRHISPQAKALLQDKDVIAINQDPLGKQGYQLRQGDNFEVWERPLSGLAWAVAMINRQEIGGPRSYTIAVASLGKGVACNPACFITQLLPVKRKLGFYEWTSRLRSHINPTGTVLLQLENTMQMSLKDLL
# Rango dissoc inh: prevents RanGTP from dissociating the Rango-importin beta complex; O95149+P62826; Biochemical FRET Rango-importin beta, RanGTP-induced dissociation; Potency, µM (top dose mostly 46.1 µM), for inactives: top-dose activity change, negative = inhibition; 340,000 compounds, 0.071% hits; active means falling FRET ratio curve, often poorly fitted, with flat reads before Ran was added; inconclusive means other falling curves, or compound fluorescence or quenching; inactive means flat or rising ratio curve;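 note: potency is the fitted concentration of half-maximal effect; % of control where 0% means no effect; nearly all actives have a fitted effect of over 45% in size; -100% = wells without RanGTP and RCC1; the record marks most hits as doubtful in a second field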
#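 Two FRET readings bracket the reaction: one 5 min after compound meets Rango–importin beta, another 45 min after RanGTP-RCC1 (0.6 uM Ran, 0.2 uM RCC1, 2 mM GTP) is added. Only the second defines inhibition.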
# miR-21 FLuc: raises the signal of a miR-21 reporter; HeLa miR-21 FLuc reporter, luciferase, 48 h; Potency, µM (doses to about 38.3 µM), inactives show at the highest dose reporter change, positive = more light; 340,000 tested, under 10 active; AID 2288; active = well fitted rising curve with a large enough effect; inconclusive = small, poorly fitted or top-dose-only effect; inactive = no such curve, though single readings can be large or run the other way;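 note: % of control where 0% means no effect; miR-21 action dims this reporter so a rising signal means less miR-21 action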
#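 Using DMEM plus 10% FBS, HeLa miR-21-FLuc cells are incubated with test compounds (final up to about 40uM) for 48 hours; firefly luciferase signal is then imaged following reagent-mediated lysis.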
# * hit, by the source's call; ? = inconclusive; . = not tested or not shown; & = joins results of further samples.
Rango-impB inh	GLA inh pH 4.5	Rango dissoc inh	miR-21 FLuc	SMILES
-2.6%	4.2	-5.2%	-0.1%	CCCC(=NCc1ccccc1)C1=C(O)C(C(=O)OC)C(C)(C)CC1=O (configuration not stated)
-1.0%	-9.4	-10.8%	27.9%	O=C(CNC(=O)c1ccccc1)N/N=C/c1ccc([N+](=O)[O-])s1
-0.4%	-9.3	-6.8%	?	CC(=O)c1ccc(-c2ccc([C@H]3[C@@H]4C=CCC[C@@]4(C)C(=O)N3Cc3ccccc3)c(F)c2)cc1
0.6%	3.7	3.8%	-1.0%	COc1ccc(C(=O)NNC(=O)CCn2nnc(-c3ccc(Cl)cc3)n2)cc1OC
-3.1%	.	17.4%	-39.3%	COc1ccccc1CNC(=O)Cc1ccccc1
0.3%	-1.6	-4.1%	-2.0%	Clc1ccc(-c2csc(N/N=C/c3cccnc3)n2)c(Cl)c1
6.4%	.	15.9%	.	O=C(OCc1ccccc1)N1C=CC2CC1c1c(Cl)cccc12 (configuration not stated)
-2.5%	-2.4	-2.5%	-22.1%	Cc1ccc2oc3nc(C)c(C(=O)Nc4cccc(C(F)(F)F)c4)cc3c(=O)c2c1
2.6%	-1.2	-8.2%	-51.2%	Cc1nn(C)cc1CNC(=O)Nc1cccc(Cl)c1
0.4%	7.1	10.6%	0.6%	CC(=O)Nc1cccc(C(=O)OCC(=O)NC(C)c2ccc(F)cc2)c1 (configuration not stated)

# (next part)
Rango-impB inh	GLA inh pH 4.5	Rango dissoc inh	miR-21 FLuc	SMILES
0.2%	-11.3	4.3%	-0.8%	COc1ccc(-c2nc3nc(C)cc(=O)n3[nH]2)cc1
3.2%	.	2.3%	-1.2%	CC(C)=CC(=O)Nc1ccc(S(=O)(=O)Nc2onc(C)c2C)cc1
-0.5%	4.6	7.7%	0.0%	O=c1[nH][nH]cc1C=Nc1ccc(Cl)cc1Cl
8.0%	8.0	-5.3%	0.3%	CCOC(=O)c1ccc(NC(=S)NCCCn2ccnc2)cc1
2.0%	0.1	-0.5%	?	CCCCN(CC)S(=O)(=O)c1ccc(C(=O)Nc2nnc(CSC)o2)cc1
?	-10.4	?	-31.8%	CC(C)CSC1=NSC2=NC(=O)/C(=C\c3coc4ccccc4c3=O)C(=N)N12
-5.4%	3.6	0.3%	8.0%	CC(=O)n1cc([C@H]2C=C(C(=O)O)O[C@@H](OCCCCO)C2)c2ccccc21
-0.3%	0.0	3.7%	-3.3%	O=C(O)c1ccc2c(c1)C(=O)N(c1ccccc1-c1ccccc1)C2=O
-3.5%	.	-12.4%	18.8%	Cc1ccc(C(=O)N2CCN(c3ccc(F)cc3)CC2)cc1S(=O)(=O)N1CCCCC1
-2.6%	-10.6	-5.9%	29.3%	O=C(NC(NNc1ccc([N+](=O)[O-])cc1)(C(F)(F)F)C(F)(F)F)c1ccc(F)cc1

# The list goes on.
Rango-impB inh	GLA inh pH 4.5	Rango dissoc inh	miR-21 FLuc	SMILES
0.1%	6.3	11.3%	0.0%	Cc1ccc(N2CC(=O)N(NC(=O)Nc3ccc(Cl)c(Cl)c3)CC2=O)cc1
1.0%	.	-1.5%	.	COc1ccc(N2CCN(C(=O)[C@H](C)N3C(=O)C4CC=CCC4C3=O)CC2)cc1 (some centres not stated)
4.5%	.	3.4%	0.3%	COc1ccccc1N(C(=O)CNC(=O)c1ccco1)C(C(=O)NCC1CCCO1)c1ccccc1 (configuration not stated)
1.2%	-4.9	11.1%	-26.7%	Cc1cc(C)c2c(c1)SC1=NC(c3ccccc3)(C(F)(F)F)NC(=O)N12 (configuration not stated)
4.7%	3.9	15.4%	-11.8%	CC1(C)C2CC=C(/C=N/NC(=O)c3ccccc3Br)C1C2 (configuration not stated)
-0.5%	.	0.2%	.	O=C(NCC(c1cccs1)N1CCOCC1)c1cc(=O)[nH]c2ccccc12 (configuration not stated)
1.4%	-1.3	-6.2%	3.2%	CCOC(=O)CSc1ccc2nnc(-c3cccs3)n2n1
0.4%	2.9	-0.8%	-2.4%	O=C1C2C3C=CC(C3)C2C(=O)N1c1n[nH]c(CCc2ccccc2)n1 (configuration not stated)
-1.7%	-10.8	4.0%	-0.5%	Cc1ccccc1NC(=O)CSCCN1C(=O)c2ccccc2C1=O
-1.7%	.	0.9%	.	CC1(C)CC(N2CCC(=O)NC2=S)CC(C)(C)N1

# The list continues.
Rango-impB inh	GLA inh pH 4.5	Rango dissoc inh	miR-21 FLuc	SMILES
-2.9%	-0.3	-4.7%	-7.8%	CNC(=O)C(=O)Nc1c(O)c2ccccc2[nH]c1=O
2.7%	.	-8.1%	.	O=C(/C=C/c1cccc([N+](=O)[O-])c1)OCC(=O)N1CCN(C(=O)c2ccco2)CC1
-0.5%	.	7.9%	.	c1ccc2c(c1)Oc1ccccc1S2
-6.9%	-11.9	-13.9%	21.6%	Cc1ccc(C(OCC(O)CNC(C)c2ccccc2)c2ccccc2)cc1 (configuration not stated)
4.1%	-5.5	11.0%	-2.4%	O=C(/C=C/c1ccc(Cl)cc1)NC(=S)Nc1ccccc1C(=O)O
0.7%	-2.3	-15.4%	-8.9%	CCn1ncc(Cl)c1C(=O)NC(C)c1ccccc1 (configuration not stated)
-0.2%	4.3	3.9%	-0.4%	COc1ccc(/C=N\NC(=O)COc2ccccc2)c(C(=O)O)c1OC
0.7%	1.9	-19.7%	1.5%	COc1ccc2nc(N/C(N)=N/C(=S)Nc3cccc(C)c3)nc(C)c2c1
0.3%	1.2	-9.4%	-4.0%	CN1CCCC(OC(=O)COc2ccccc2)C1 (configuration not stated)
-1.3%	4.9	-7.0%	-1.5%	CN(C)S(=O)(=O)Oc1ccccc1C(=O)Nc1ccccc1Cl

# (listing goes on)
Rango-impB inh	GLA inh pH 4.5	Rango dissoc inh	miR-21 FLuc	SMILES
2.8%	.	1.0%	-9.3%	COc1cccc(CSCC(=O)NCCc2ccccc2)c1OC
?	-1.7	?	-56.5%	Cc1cc2nc(SCCN3CCOCC3)[nH]c2cc1C
-2.4%	-25.2	0.2%	-2.5%	COC(=O)C1C(=O)C2=C(CC1C)NC(=O)CC2c1ccc(O)c(OC)c1 (configuration not stated)
-0.1%	1.4	23.4%	6.9%	O=C(COC(=O)c1ccc([N+](=O)[O-])s1)NC(c1ccccc1)c1ccccc1
3.3%	1.0	3.4%	-36.7%	O=C(Nc1ccc(Nc2ccccc2)cc1)C1CC1
0.1%	.	5.8%	.	O=C(O)c1cccc(S(=O)(=O)Nc2cccc(S(=O)(=O)Nc3ccc(Br)cc3)c2)c1
2.1%	.	8.0%	-0.7%	CN(Cc1c(C(=O)N/N=C/c2cccc(F)c2)nnn1-c1nonc1N)C1CCCCC1
-3.4%	.	-7.9%	-1.3%	CCCN(CCC)Cc1c(C(=O)N/N=C/c2ccc(C)o2)nnn1-c1nonc1N
0.1%	-1.5	1.9%	2.8%	C=CCSc1nnc(NC(=O)Cn2cnc3c2c(=O)n(C)c(=O)n3C)s1
-0.2%	8.0	-5.8%	-1.1%	Cc1ccc(C(=O)NCCNc2nc3cc(C)c(C)cc3cc2C)cc1

# (list continues)
Rango-impB inh	GLA inh pH 4.5	Rango dissoc inh	miR-21 FLuc	SMILES
0.2%	4.9	19.8%	0.2%	CCCC(=O)Nc1c(C)nn(C(=O)CCC)c1C
0.2%	?	0.7%	-1.4%	CN(C)CCNC(=S)NC1CCCCC1
-0.1%	-2.0	2.7%	4.2%	Cc1nc(OCc2c(C)noc2C)c2ccccc2n1
-3.4%	.	0.9%	-24.3%	CC(=O)c1cccc(NC(=O)Nc2ccccc2)c1
-5.0%	.	-4.4%	0.3%	CC1=C([N+](=O)[O-])C(c2ccc(O)c(O)c2)NC(=O)N1 (configuration not stated)
2.8%	-5.6	?	7.6%	CCOC(=O)CC(=O)CSc1n[nH]c(=O)[nH]c1=O
-1.5%	-0.3	10.1%	1.0%	Cc1ccc(S(=O)(=O)Nc2ccc(Cl)cc2C(=O)c2ccccc2)cc1
6.4%	.	13.8%	.	COCCn1c(SC(C)C(=O)NC2CCCCC2C)nc2ccccc2c1=O (configuration not stated)
-4.8%	8.3	-6.7%	-41.2%	O=C1OC(Cc2ccccn2)C(O)=C1C1=NCCCN1 (configuration not stated)
5.0%	-4.8	10.9%	-3.4%	O=C(CCN1CCOCC1)NCC1COc2ccccc2O1 (configuration not stated)

# Remaining list, next part:
Rango-impB inh	GLA inh pH 4.5	Rango dissoc inh	miR-21 FLuc	SMILES
-0.6%	1.8	5.4%	-0.3%	O=C(/C(Cl)=C/Nc1ccc(Br)cn1)C(F)(F)F
?	-2.6	1.1%	-1.0%	CCOC(=O)CSc1cc(C)nc(NC(C)=O)n1
?	.	0.4%	-5.9%	Cc1ccc2c(C)c(C(=O)Nc3ccc(S(=O)(=O)Nc4onc(C)c4C)cc3)oc2c1
-0.3%	-9.2	7.4%	-22.3%	Cn1c(=O)n(CCCOc2ccc(Br)cc2)c2ccccc21
0.6%	.	-14.2%	.	CCc1ccc(C(=O)CN2C(=O)NC3(CCOc4ccccc43)C2=O)s1 (configuration not stated)
1.0%	-2.2	2.5%	-0.3%	CCN(CC)S(=O)(=O)c1cc(C(=O)OCC(=O)c2ccc3c(c2)NC(=O)CO3)ccc1Cl
10.3%	.	-0.6%	0.5%	CC(=O)c1ccc(NC(=O)C[n+]2ccccc2)cc1
?	10.5	-9.9%	-20.9%	CN(C1CCCCC1)S(=O)(=O)Cc1ccccc1
-2.3%	.	-8.1%	.	O=C(Nc1ccc(F)c(Cl)c1)C1CC(=O)N(Cc2ccccc2)C1 (configuration not stated)
-2.3%	-0.7	-15.9%	-7.1%	O=C(N1CCN(c2ccccc2)CC1)C12CC3CC(CC(C3)C1)C2

# Entries of single compounds, quoted from the list:
# `O=C(Nc1ccc(F)c(Cl)c1)C1CC(=O)N(Cc2ccccc2)C1` (configuration not stated) in the list: Rango-impB inh = -2.3%; GLA inh pH 4.5 = .; Rango dissoc inh = -8.1%; miR-21 FLuc = .
# `CCOC(=O)CSc1cc(C)nc(NC(C)=O)n1` in the list: Rango-impB inh = ?; GLA inh pH 4.5 = -2.6; Rango dissoc inh = 1.1%; miR-21 FLuc = -1.0%
# `O=C(N1CCN(c2ccccc2)CC1)C12CC3CC(CC(C3)C1)C2` in the list: Rango-impB inh = -2.3%; GLA inh pH 4.5 = -0.7; Rango dissoc inh = -15.9%; miR-21 FLuc = -7.1%

# Next section
Rango-impB inh	GLA inh pH 4.5	Rango dissoc inh	miR-21 FLuc	SMILES
0.7%	.	-24.9%	1.1%	C/C(=N\NC(=O)c1cc(C)nc2ccc(C)cc12)c1ccncc1
-5.3%	10.2	5.0%	-0.2%	COC(=O)c1nn(-c2ccccc2)c(=O)cc1O
3.3%	2.5	1.0%	-11.9%	COc1cccc(C2/C(=C(/O)c3cnn(-c4ccccc4)c3C)C(=O)C(=O)N2CCN(C)C)c1 (configuration not stated)
.	4.3	.	6.1%	Cc1[nH][nH]c(=O)c1C(c1ccc(-c2ccc(Cl)cc2Cl)o1)c1c(C)[nH][nH]c1=O
-2.8%	-4.0	-11.5%	4.4%	COc1ccc(CNC(=O)[C@H](C)NC(=O)C2CCN(S(=O)(=O)c3ccc(C)cc3)CC2)cc1
0.5%	6.1	2.3%	-1.4%	O=C(Cc1cccs1)Nc1cccnc1
-0.7%	.	-0.8%	0.8%&1.2%	Cc1oc2ccc(NS(=O)(=O)c3ccc(F)cc3)cc2c1C(=O)O
1.8%	5.9	2.3%	-2.9%	CCOC(=O)C1(CCCc2ccccc2)CCN(C(=O)[C@@H]2C[C@@H](C)NC(=S)N2)CC1
5.6%	.	6.4%	.	CC(=O)Nc1cccc(NC(=O)CSc2nc(=O)n(Cc3ccccn3)c3c2CCC3)c1
?	9.3	?	2.8%	COC(=O)Cn1c(=NC(=O)c2ccc(S(=O)(=O)N3CCc4ccccc4C3)cc2)sc2cc(OC)ccc21

# Continued:
Rango-impB inh	GLA inh pH 4.5	Rango dissoc inh	miR-21 FLuc	SMILES
3.7%	-1.7	1.4%	9.7%	Cc1ccccc1NC(=S)NCCC(c1ccccc1)c1ccccc1
1.0%	13.1	-7.2%	-8.9%	Cc1ccc(Cn2c(SCC(=O)N/N=C/c3ccc(C)o3)nc3ccccc32)cc1
-0.1%	-3.3	-2.3%	-1.1%	O=c1c2cc(Br)ccc2[nH]c(=S)n1Cc1cccnc1
4.3%	-7.0	-2.9%	-2.1%	CC(C)NS(=O)(=O)c1ccc(CCC(=O)N2CCOCC2)cc1

# Assay outcomes deposited in PubChem BioAssay by National Center for Advancing Translational Sciences (NCATS).

# Some of the compounds tested; count on the stated rates, not on these rows.
